Vif TR-FRET: inhibitors of Vif binding to APOBEC3G peptide, primary screen, biochemical, TR-FRET, GST-Vif 1-94, biotin-A3G peptide, dose response retest (AID 1117319) | Virion infectivity factor (Human immunodeficiency virus type 1 group M subtype B (isolate … | TR-FRET GST-Vif / biotin-A3G peptide binding; higher % means a stronger effect; test concentration not given here; strong numbers were not always called active | inhibition, %, or IC50 in µM where a hit was titrated | actives 0.57% (n = 260,000);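 active = above the screen mean plus three standard deviations and confirmed in dose response; inconclusive = results disagree or hit not tested in dose response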;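 note: Vif residues 1-94 fused to GST binding biotinylated APOBEC3G peptide 110-148; 0% = full assay without inhibitor and 100% = GST in place of GST-Vif; retest series ran down from 100 µM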
A1 inh: caspase 3/7 activation in MEF A1-2A-BIM cells, primary screen, A1 inhibitor project, cell-based, luminescence, HTS; AID 2462, 2010; caspase activation, % (test concentration not listed); Caspase-Glo 3/7 luminescence, 3 h; percent of clofoctol response, vehicle zero; actives 0.066% (n = 330,000);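 active = over half of replicate activation scores above 10%, or exactly half above 10 with the replicate mean above 10; inconclusive = replicate mean below 10 yet half the replicates above 10; inactive = over half of replicates below 10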;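 note: wells of about 30 µL received 50 nL stock; many hits fall short of the cut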
RanGTP-Imp inh: inhibitors of RanGTP-importin-beta interaction, primary screen, biochemical, FRET, CFP-Ran, YFP-importin-beta, homogeneous; Ran GTPase (GTP-bound) - importin-beta complex; cell-free CFP-Ran/YFP-importin-beta FRET ratio; inhibition, % (test concentration not listed); actives 1.1% (n = 300,000); AID 2216, 2009;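 active = most replicates above 15%; inconclusive = exactly half above 15%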;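 note: 0% = DMSO wells and 100% = Ran loaded with GDP instead of GTP; wells of about 40 µL received 100 nL stock; the first replicate is given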
MLL AF4-AF9 inh: inhibitors of AF4 peptide binding to AF9, primary screen, biochemical, AlphaScreen, biotin-AF4 peptide, FLAG-AF9, single point | Protein AF-9 (Homo sapiens), P42568 | inhibition, % at 10 µM | AID 651704, 2012 | actives 0.47% (n = 350,000);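 active = every replicate reaching a set inhibition limit, whatever the replicate mean, cut at about 25% in these data; inconclusive = mean inhibition reaches that limit but some replicates miss it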;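 note: 0% = plate neutral control median and 100% = total signal loss; the record names both 10 and 1 µM as test concentration; the first replicate is given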
Target sequence (P42568 whole entry, looked up): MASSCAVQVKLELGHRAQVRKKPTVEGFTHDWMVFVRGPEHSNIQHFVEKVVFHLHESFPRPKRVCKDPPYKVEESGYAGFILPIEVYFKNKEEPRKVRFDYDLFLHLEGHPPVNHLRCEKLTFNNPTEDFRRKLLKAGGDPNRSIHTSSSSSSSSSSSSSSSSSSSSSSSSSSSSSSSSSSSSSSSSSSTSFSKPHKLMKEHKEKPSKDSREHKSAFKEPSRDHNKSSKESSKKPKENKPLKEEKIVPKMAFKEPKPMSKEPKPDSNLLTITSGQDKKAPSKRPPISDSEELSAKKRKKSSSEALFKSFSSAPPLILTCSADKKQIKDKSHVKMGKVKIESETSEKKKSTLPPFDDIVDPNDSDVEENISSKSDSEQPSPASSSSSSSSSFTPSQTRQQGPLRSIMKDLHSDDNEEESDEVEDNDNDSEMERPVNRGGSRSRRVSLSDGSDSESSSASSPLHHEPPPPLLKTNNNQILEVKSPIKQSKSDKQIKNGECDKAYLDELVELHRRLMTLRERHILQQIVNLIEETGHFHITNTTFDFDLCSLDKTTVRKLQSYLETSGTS
Beta apoptosis: inhibitors of cytokine-induced beta cell apoptosis, primary screen, luminescence; INS-1E cytokine-induced death, ATP luminescence, 48 h; percent of positive-control rescue, neutral wells zero; protection from apoptosis, % (test concentration not listed); actives 0.8% (n = 300,000); AID 435005, 2010;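 active = all replicates at 75% or more, or half of them and the mean; inconclusive = half reach 75% but not the mean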;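 note: 0% = cytokine-treated negative control wells and 100% = positive control rescue; higher means more ATP so stronger rescue from cytokine killing; wells of about 40 µL received 100 nL stock; the first replicate is given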
T cruzi inh: inhibitors of intracellular T. cruzi growth, primary screen, luminescence, NIH3T3 host cells; inhibition, % (concentration not given with the values); actives 1.4% (n = 300,000); T. cruzi beta-gal in NIH3T3, 90 h;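 active = mean inhibition across valid replicates above about 55%, limit read from the data; inconclusive = mean below that limit but half or more replicates reach it; inactive = mean below it, under half of replicates reach it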;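 note: signal also drops with host cell toxicity which is not excluded here; 0% = plate median of DMSO wells and 100% = zero luminescence signal; higher percent means less beta-gal luminescence so fewer parasites; stock transfer was 50 nL into about 50 µL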
Calb FLC: C. albicans growth inhibition with fluconazole, primary screen, CaCi-2 strain, Alamar Blue fluorescence. C. albicans CaCi-2 (fluconazole-resistant clinical isolate) + fluconazole, 48 h. growth inhibition, % (test concentration not listed). actives 0.57% (n = 300,000). AID 1979, 2009;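 active = most replicates above 75%; inconclusive = exactly half above 75%; inactive = most below 75%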;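 note: all wells also contain fluconazole at 8 µg/ml as a sub-toxic cotreatment; 0% = median of DMSO wells and 100% = median of geldanamycin control wells; wells of about 8 µL received 7.5 nL stock; the first replicate is given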
rRNA inh HTS: reduced GFP signal of wild-type E. coli, primary screen, bacterial rRNA inhibitor project, GFP/RFP fluorescence, OD600, single point; GFP signal change (wild-type ribosome), % (concentration not given with the values); actives 1.6% (n = 350,000); E. coli WT GFP vs humanized-ribosome RFP mutants, 24 h; active compounds read low; DMSO median 0, no signal -100;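 active = significant combined selectivity score with lowered wild-type GFP, culture density cut under 30%, mutant RFP and density less affected; inactive = any of these conditions unmet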; note: one replicate is shown; some compounds called inactive have numbers as strong as hits
rRNA inh HTS OD600: second read-out of rRNA inh HTS, no call of its own (marks repeat the call); OD600 change, %; measured here: OD600 growth;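 optical density of the mix in the first replicate; 0 = DMSO median and -100 = no signal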
rRNA inh HTS RFP: also measured in rRNA inh HTS; calls as there; RFP signal change, %; measured here: RFP humanized mutant strains;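 first replicate; 0 = DMSO median and -100 = no signal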
Starred values were filed as active, the others as inactive; ? = inconclusive; . = no result given.

SMILES	Vif TR-FRET	A1 inh	RanGTP-Imp inh	MLL AF4-AF9 inh	Beta apoptosis	T cruzi inh	Calb FLC	rRNA inh HTS	rRNA inh HTS OD600	rRNA inh HTS RFP
Cc1cc(=O)n(CCc2ccccc2)c(O)c1C#N	23%	-2.6	-17	.	-4	-4	-5	.	.	.
COc1ccc(Cc2nnc(Nc3ccc(Cl)cc3)[nH]c2=O)cc1	14%	0.2	-2.7	1.6	0	4	-3	-6	7	-1.6
Cc1ccc2cc(CCNC(=O)c3ccc4c(c3)OCO4)c(=O)[nH]c2c1	-8%	0.1	-2.0	-2.5	3	-2	11	5	-5	3.4
CCOC(=O)c1ccc(-n2ccnc2)c(NC(=O)c2ccc(Cl)cc2)c1	12%	0.2	-3.2	.	-2	48	-3	.	.	.
Cc1cc2n(c(=O)c1C#N)CCCN2c1cccc(Cl)c1	-4%	0.5	-0.2	.	-1	-7	-6	.	.	.
Cc1cc(C)c2oc(C(=O)N(Cc3ccccc3)c3ccccn3)cc(=O)c2c1	.	0.3	-0.9	-2.3	6	13	21	0	2	-2.2
Cc1ccnc(NC(=O)c2ccc(N3C(=O)CCC3=O)cc2)c1	-8%	-3.4	-0.9	.	-2	-3	.	.	.	.
Cc1cc(Oc2ccc(-c3nnc(-c4ccccc4)o3)cc2[N+](=O)[O-])ccc1Cl	.	-1.3	4.2	.	1	37	2	.	.	.
COC(=O)/C(=C\C=C\c1ccccc1)NC(=O)c1ccccc1	.	0.0	-1.2	8.0	.	-4	33	-16	-14	-2.4
Cn1c(SCC(=O)NCc2ccc(F)cc2)nc2c([nH]c3ccccc32)c1=O	-10%	0.2	5.1	-1.2	-1	7	-2	14	22	3.0
COc1ccc(CNC(=O)Cn2cc3c(n2)CCCCC3)cc1	8%	0.3	?	1.5	-4	9	-5	1	-3	2.0
Cc1nc(NC(=O)CN2CCN(c3ccccc3F)CC2)sc1C(=O)N(C)C	.	0.4	1.0	3.6	0	-2	-6	3	2	0.5
C[C@@H]1CCC2[C@](C)(CO)[C@@H](O)CC[C@]2(C)[C@@]12CCC(CO)(CCO)O2 (stereo partly specified)	-2%	0.4	2.5	-6.7	-6	?	-1	11	15	9.9
O=C(NCC(c1ccco1)N1CCc2ccccc21)c1ccccc1F (stereo unspecified)	-3%	0.3	4.2	8.3	2	2	30	-25	-26	-5.0
COc1ccc(OCC(=O)Nc2ccc(S(=O)(=O)N3CCCCC3)cc2)cc1	.	-0.1	?	?	-6	1	1	1	5	-0.8
CC(=O)Nc1ccc(NCN2C(=O)C3C4CCC(C4)C3C2=O)cc1 (stereo unspecified)	-1%	0.1	1.1	.	-4	7	-3	.	.	.
O=C(NCc1ccc(F)cc1)c1cnn2ccccc12	2%	-0.5	-1.9	5.4	.	-11	-4	3	0	1.3
COc1ccccc1C(=O)CC(=O)c1ccccc1	.	-3.8	4.1	-0.3	0	-9	3	-11	-7	-2.9
Cn1c(SCC(=O)Nc2ccc3c(c2)OCCO3)nnc1-c1ccncc1	.	0.2	2.5	-2.6	1	10	1	14	18	-1.5
O=C(COC(=O)c1c(F)cccc1Cl)NC(=O)Nc1ccc2c(c1)OCCO2	-4%	0.3	.	0.1	-2	.	.	.	.	.
COc1ccc(OC)c(-c2cc(C(=O)NCc3ccco3)no2)c1	15%	-0.1	-0.8	7.1	5	-11	-22	-14	-6	-6.6
COc1cccc(OC)c1NC(=O)CN1CCN(C)CC1	-2%	-0.3	11	0.4	-3	1	-4	9	-1	-5.6
Cc1ccc(SCC(=O)NCCSC(C)(C)C)cc1	-2%	0.7	-2.1	.	-1	-4	4	.	.	.
Nc1cc(=O)[nH]c(SCC(=O)Nc2cc(S(=O)(=O)N3CCOCC3)ccc2Cl)n1	5%	0.0	-1.0	-1.3	-3	-7	4	.	.	.

Compound profiles, as listed above.
Record of Cc1cc(=O)n(CCc2ccccc2)c(O)c1C#N → Vif TR-FRET = 23%; A1 inh = -2.6; RanGTP-Imp inh = -17; MLL AF4-AF9 inh = .; Beta apoptosis = -4; T cruzi inh = -4; Calb FLC = -5; rRNA inh HTS = .; rRNA inh HTS OD600 = .; rRNA inh HTS RFP = .
Record of Cc1cc(C)c2oc(C(=O)N(Cc3ccccc3)c3ccccn3)cc(=O)c2c1 → Vif TR-FRET = .; A1 inh = 0.3; RanGTP-Imp inh = -0.9; MLL AF4-AF9 inh = -2.3; Beta apoptosis = 6; T cruzi inh = 13; Calb FLC = 21; rRNA inh HTS = 0; rRNA inh HTS OD600 = 2; rRNA inh HTS RFP = -2.2

(listing goes on)
SMILES	Vif TR-FRET	A1 inh	RanGTP-Imp inh	MLL AF4-AF9 inh	Beta apoptosis	T cruzi inh	Calb FLC	rRNA inh HTS	rRNA inh HTS OD600	rRNA inh HTS RFP
Cc1ccc(NC(=O)N2CCOCC2)c(C)c1	18%	0.2	-1.0	.	0	-9	-8	.	.	.
O=C(CNC1CCCCC1)Nc1cc(S(=O)(=O)N2CCOCC2)ccc1Cl	1%	-0.3	-3.6	-0.3	-17	0	-8	9	12	0.3
O=C(NC1CCCCCCC1)c1c(O)c2ccccc2[nH]c1=O	-2%	-0.8	4.8	.	7	23	-8	.	.	.
CC(C)C(=O)Nc1ccc(NC(=S)NC(=O)c2cc3ccccc3o2)cc1	-4%	-0.4	1.5	0.4	.	-11	1	6	9	0.3
N#Cc1ccc(S(=O)(=O)N2CCc3[nH]c4ccc(F)cc4c3C2)cc1	-7%	0.5	-2.4	.	0	24	15	-22	-22	8.3
COc1ccccc1N1CCN(C(=O)CCc2nnc3ccc(N4CCC(C)CC4)nn23)CC1	-9%	-0.8	2.3	2.9	1	-2	9	-23*	-18*	1.4*
CC(C)(C)S(=O)(=O)c1cnc(-c2ccc(Cl)cc2)nc1N	-14%	0.8	-5.8	?	7	-6	-21	15	23	-1.1
CCc1ccccc1-n1c(SCC(=O)N2CCCC2)nc2[nH]ncc2c1=O	-16%	1.0	-3.3	-0.5	0	-19	-23	15	6	0.9
Cc1cc(/C=N/n2c(COc3ccccc3C)nc3ccccc3c2=O)c(O)c([N+](=O)[O-])c1	.	-1.2	6.1	32*	79*	67*	91*	1	1	3.2
CCOC(=O)CSC(C)C(=O)Nc1nnc(C(C)C)s1 (stereo unspecified)	9%	0.3	3.1	-6.4	-7	-6	1	3	6	-5.1
CC(C)(C)C(=O)CN1C2=NCCCN2c2ccccc21	.	0.2	-0.9	-0.4	1	10	3	2	9	1.9
O=C1C2CCCN2C(=O)N1CCCCN1CCN(CCO)CC1 (stereo unspecified)	-2%	-0.2	0.8	4.3	6	-7	-10	7	10	15
COc1ccc2sc(-c3ccc(N(C)C)cc3)c(C#Cc3cncn3C)c2c1	.	-0.8	.	-16	8	.	.	-2	-1	34
COc1ccc(NC(=S)N(Cc2ccc(N(C)C)cc2)Cc2ccco2)cc1	.	0.8	?	.	-1	23	-29	.	.	.
COc1ccccc1CNC(=O)CSc1nn2c(=O)c(C(C)(C)C)nnc2s1	-6%	-0.3	-2.4	4.7	2	18	17	-27	-33	-3.2
O=c1c2cn[nH]c2[nH]c(=S)n1-c1ccccc1F	-1%	-0.8	?	.	-11	-11	-2	.	.	.
Cc1ccc(OCC(=O)Nc2ccc(N3CCN(S(C)(=O)=O)CC3)cc2)cc1	-2%	0.6	-1.0	-8.8	6	-8	14	13	5	-4.6
CCCn1c(O)c(N=NC(=O)c2cccnc2)c2cc(Br)ccc21	-2%	-0.2	-3.9	2.5	17	4	14	3	1	2.3
CCc1ccc(N(CC(=O)NC2CCCC2)C(=O)CCC(=O)Nc2ccccn2)cc1	-1%	0.3	8.5	-2.5	-2	4	-13	8	8	-2.3
COCc1cc(=O)[nH]c(-c2ccccc2OC(F)(F)F)n1	-4%	0.1	-0.3	-0.2	0	.	0	-2	5	-0.6
O=C(NCC1CCCO1)c1cccs1 (stereo unspecified)	11%	?	5.1	-7.8	4	.	-1	20	21	-7.9
CCOc1cc(C(=O)N/N=C/c2ccsc2)cc(OCC)c1OCC	.	0.0	-3.4	-16	-2	-16	-10	10	8	-0.6
O=C(NCC1CCCCC1)c1ccc(=O)[nH]c1	.	-0.6	2.9	0.2	-1	28	-1	4	-3	-1.5
CC(C)NC(=O)CCNC(=O)c1ccc(F)cc1	-3%	-0.3	2.8	0.1	-4	-8	-1	13	3	-2.5
O=S(=O)(ON(c1ccccc1)S(=O)(=O)c1ccccc1)c1ccccc1	19%	-0.6	-1.6	-1.1	-2	-4	3	.	.	.
Cc1c(C(=O)N2CCCC2)oc2c1-c1nn(CC(=O)NCCCN3CCCCC3C)cc1CC2 (stereo unspecified)	5%	1.2	0.6	1.5	-2	-1	-6	10	10	1.9
Cc1ccsc1C1CC(=O)OC2=C1C(=O)CC(C)(C)C2 (stereo unspecified)	.	-1.4	-1.5	.	2	-9	16	.	.	.
CC(C)CC(=O)NC(=S)Nc1ccc(NC(=O)c2cccs2)cc1	8%	-2.5	-2.6	.	2	0	3	.	.	.
CC(=O)Nc1ccc(N2C(=O)CC(N3CCSCC3)C2=O)cc1 (stereo unspecified)	-2%	1.2	-0.5	-3.6	-9	-13	-20	1	13	1.0
COc1ccc(Nc2nc(N)nc(CN3CCN(c4ccccn4)CC3)n2)cc1	2%	1.0	4.3	.	5	-7	4	.	.	.
Cc1ccnc(NC(=O)c2ccc(Cl)c(S(=O)(=O)N3CCCCC3)c2)c1	.	-2.3	.	5.4	-21	.	.	-4	-13	-0.2
CCN(CC)C(=O)Cn1cc(S(=O)(=O)CC(=O)Nc2cc(OC)ccc2OC)c2ccccc21	.	-1.9	-0.2	-1.4	.	10	-2	3	-3	1.9
Cc1csc(NC(=O)CSc2nnc(NC(=O)C3CC(=O)N(c4ccccc4)C3)s2)n1 (stereo unspecified)	.	1.2	-3.2	-3.1	3	-7	7	20	11	6.4
O=C(Nc1ccc(N2CCOCC2)cc1)c1ccc([N+](=O)[O-])cc1	-11%	0.5	-0.3	2.7	-4	16	-4	4	10	-1.0
Cc1cc(OCC(=O)NC2CC2)c2c(C)cc(=O)oc2c1	.	0.3	1.4	.	-5	-9	1	.	.	.
CN(C)CCn1c2c(c(SCC(=O)Nc3ccccc3)nc1=O)CCCC2	2%	0.3	-2.4	1.6	.	6	5	7	8	-1.2
O=C(CCc1ccccc1)NNC(=S)Nc1ccc(F)cc1	4%	0.5	0.0	0.1	0	-14	3	2	-5	3.1

Source: PubChem (several laboratories)

The list is partial; the hit share may differ from the screen's.
